TAR Tat displ: HIV-1 TAR-Tat binding disruption. 100,000 compounds, 0.6% hits. z-score (concentration not given with the values). AID 1259389. HIV-1 TAR RNA, Tat peptide displacement FRET; stronger effect = higher value;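 also: score is relative to mean and SD of negative controls; some compounds called inactive have numbers as strong as hits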
CDC25B-CDK2 inh: human CDC25B-CDK2/CyclinA binding inhibition | HTRF CDC25B-CDK2/CyclinA binding, anti-His/anti-Flag; stronger effect = higher value | z-score (no concentration beside the values) | 94,000 compounds, 0.72% hits;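 also: score is relative to mean and SD of negative controls; strong numbers were not always called active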
Active calls of the source: *; nt = not tested or not shown.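 The calls were made as follows: active = z-score from 3 up in half or more of its runs; inactive = the rest.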 Hits appear at their usual frequency. Share with any hit: about 0.89%.

No. | compound | TAR Tat displ | CDC25B-CDK2 inh
1 | O=C(Cn1nc(C(F)(F)F)c2c1CCCC2)NCCN1CCOCC1 | nt | 0.7
2 | O=C(Nc1ccc(Cl)cc1)ONC=NC1=C(c2ccccc2)C(=O)c2ccccc21 | nt | -0.87
3 | CCOC(=O)c1c(O)c2cccc3c2n(c1=O)CCC3 | 2.09 | nt
4 | CC1(C)CCC[C@@](C)([C@H]2CC[C@]3(C)[C@@H]2[C@H](O)C[C@@H]2[C@@]4(C)CC[C@H](O)C(C)(C)[C@@H]4CC[C@]23C)O1 | 1.28 | nt
5 | Cc1nc(SCc2cc(=O)n3ccsc3n2)n[nH]1 | -0.31 | nt
6 | CCc1nc(N)nc2c1C(=O)CC(C)(C)C2 | 1.78 | -2.43
7 | Cc1cccc(-n2c(N)c(C#N)c3nc4ccccc4nc32)c1C | 2.29 | 0.18
8 | O=C(CN1CCN(c2ccccn2)CC1)c1ccc2cc[nH]c2c1 | -1.02 | -2.51
9 | O=C(Nc1ccccc1Br)C1CCCN1S(=O)(=O)c1cccc2nsnc12 (stereo unspecified) | -2 | -0.52
10 | CS(=O)(=O)N1CCC(C(=O)NCc2ccco2)CC1 | 1.27 | nt

Rewritten screen by screen: entries from further up.
[2] O=C(Nc1ccc(Cl)cc1)ONC=NC1=C(c2ccccc2)C(=O)c2ccccc21
[3] CCOC(=O)c1c(O)c2cccc3c2n(c1=O)CCC3
Screen / compound no. | 2 | 3
TAR Tat displ | nt | 2.09
CDC25B-CDK2 inh | -0.87 | nt

Next section:
No. | compound | TAR Tat displ | CDC25B-CDK2 inh
11 | Cc1cccc(C2CC(=O)Oc3c2c(=O)n(C)c2ccccc32)c1 (stereo unspecified) | 0.61 | -0.11
12 | CC(C)Oc1ccc(C2CC(=O)Nc3nc(SCc4ccccc4Cl)[nH]c(=O)c32)cc1 (stereo unspecified) | -1.04 | -1.43
13 | Cc1nc2c(c(C)nn2C(C)(C)C)c(C)c1CCC(=O)Nc1ccc2c(c1)OCO2 | -0.49 | 1.07
14 | COc1ccc(-c2ccc3c(n2)sc2c(O)cc(=O)[nH]c23)cc1OC | 5.14 | -0.51
15 | Cn1c(=O)c(=O)n(C)c2cc(S(=O)(=O)CCC(=O)N3CCOc4ccccc4C3)ccc21 | 1.59 | nt
16 | CCOC(=O)c1nc(NCc2ccc3c(c2)OCO3)c2c(C)noc2n1 | -1.04 | nt
17 | COc1ccccc1NC(=O)Nc1nnc(SCCOc2ccccc2)s1 | nt | -2.98
18 | CC(C)(COC(=O)c1ccc([N+](=O)[O-])o1)Nc1ccc(C(F)(F)F)cc1[N+](=O)[O-] | nt | -1.52
19 | CC(C)NC(=O)C(=O)NCC(c1cccs1)S(=O)(=O)c1ccc(F)cc1 (stereo unspecified) | 1.82 | nt
20 | O=C(c1cccc(NC2=NC3CS(=O)(=O)CC3S2)c1)N1CCN(c2ccccc2)CC1 (stereo unspecified) | -0.35 | -2.32
21 | CCN1c2cc(C)ccc2-n2cccc2C12CCN(C(=O)NC1CCCC1)CC2 | 0.78 | nt
22 | O=C(NC(=S)Nc1cc(-c2ccccc2)[nH]n1)c1ccccc1 | nt | -3.02
23 | Cn1ncc2c(NCc3ccccc3Cl)nc(N3CCN(C4CCCCC4)CC3)nc21 | 0.77 | nt
24 | N/C(COc1ccc(-c2nnco2)cc1)=N\OC(=O)c1cccc(C(F)(F)F)c1 | nt | -0.39
25 | Cc1ccc(Cn2c(=O)cc(C)c3c(C)nn(C)c32)cc1 | 0.73 | nt
26 | COc1ccc(-c2nc3n(n2)C(c2cccc(OC)c2OC)C2=C(CCCC2=O)N3)cc1 (stereo unspecified) | 1.41 | 1.33
27 | COC(=O)CSc1nnc(CSc2nc(C)cc(C)n2)n1-c1ccccc1 | 0.49 | -0.43
28 | CN1CCN(CCCNC(=O)C2=Cc3ccccc3OC2)CC1 | 0.21 | nt
29 | COc1ccc(CNc2nc(-c3ccc(OC)c(OC)c3)no2)c(OC)c1 | 0.87 | nt
30 | COc1ccc(OCC2c3cc(OC)c(OC)cc3CCN2C(=O)c2cccc(Cl)c2)cc1 (stereo unspecified) | nt | -1.24
31 | COC(=O)c1ccc(C(=O)OC)c(NC(=O)NC2(C(F)(F)F)Oc3ccccc3O2)c1 | nt | -1.12
32 | O=C(Nc1ccc2nccnc2c1)c1ccc2nsnc2c1 | nt | 0.22
33 | Cc1cc(C(F)(F)F)n2ncc(-c3cccc(Cl)c3)c2n1 | -3.11 | -0.09
34 | c1cncc(-c2cc(-c3cccnc3)c3c(ccc4ccccc43)n2)c1 | nt | -3.43
35 | COc1ccc(CN2CCc3nc(N4CCC(C)CC4)ncc3C2)c(OC)c1 | 1.38 | nt
36 | CCOC(=O)CSc1nc(C)c2cc(C)c(C)cc2n1 | -2.75 | -1.3
37 | COC(=O)c1cnn2c(C(F)(F)F)cc(-c3cc(OC)c(OC)c(OC)c3)nc12 | nt | -2.99
38 | COc1ccc(Cl)cc1NC(=O)CSc1ncc2c(n1)-c1ccccc1N(C)S2(=O)=O | -0.91 | nt
39 | Cc1nc2ccc(Cc3ccc4nc(C)oc(=O)c4c3)cc2c(=O)o1 | -0.41 | -0.82
40 | COc1ccc(N2CCN(S(=O)(=O)CCNS(=O)(=O)c3ccc4ccccc4c3)CC2)cc1 | 0.27 | nt

6 structures already listed, ordered by SMILES length, falling:
No. | compound | TAR Tat displ | CDC25B-CDK2 inh
40 | COc1ccc(N2CCN(S(=O)(=O)CCNS(=O)(=O)c3ccc4ccccc4c3)CC2)cc1 | 0.27 | nt
38 | COc1ccc(Cl)cc1NC(=O)CSc1ncc2c(n1)-c1ccccc1N(C)S2(=O)=O | -0.91 | nt
35 | COc1ccc(CN2CCc3nc(N4CCC(C)CC4)ncc3C2)c(OC)c1 | 1.38 | nt
39 | Cc1nc2ccc(Cc3ccc4nc(C)oc(=O)c4c3)cc2c(=O)o1 | -0.41 | -0.82
33 | Cc1cc(C(F)(F)F)n2ncc(-c3cccc(Cl)c3)c2n1 | -3.11 | -0.09
36 | CCOC(=O)CSc1nc(C)c2cc(C)c(C)cc2n1 | -2.75 | -1.3

New compounds follow.
No. | compound | TAR Tat displ | CDC25B-CDK2 inh
41 | Cc1cc(N2CCN(c3nc4cc(Cl)ccc4s3)CC2)c2ccccc2n1 | nt | -0.76
42 | Cc1nnc2c(NC3CCCC3)nc3ccccc3n12 | nt | 0.43
43 | CC(=O)c1c(C)oc2c1c1c(c3ccccc32)OCN(C2CC(C)(C)NC(C)(C)C2)C1 | nt | -2.82
44 | Cc1c(C(=O)NCCCN2C(C)CCCC2C)oc2ccc3c(c12)C(O)CC1(CCCCC1)O3 (stereo unspecified) | 1.71 | -1.46
45 | CCOC(=O)N1CCCN=C1NNc1cc(Cl)ccc1OC | nt | -1.18
46 | COC(=O)c1scc(-c2ccccc2)c1S(=O)(=O)N1CCCC1 | 0.38 | nt
47 | COc1cc(NS(C)(=O)=O)ccc1Cc1c2ccccc2nc2ccccc12 | 1.4 | nt
48 | CCOC(=O)C1=C(C)Nc2ncnn2C1 | 0.79 | 1.7
49 | CC1=CC(C)C(C2OCC(C)(C)CO2)C(C)C1 (stereo unspecified) | nt | -1.58
50 | Cc1[nH]c2ccccc2c1C(=O)CSc1nnc(-c2ccc3c(c2)OCCCO3)n1C | 0.5 | nt
51 | CNC(=O)NC(=O)CSc1nnc(Cc2ccccc2)n1-c1ccc(Cl)cc1 | nt | -1.65
52 | CSc1ccc(CNC(=O)CSCc2nc3cccnc3n2C2CCCCC2)cc1 | -3.79 | nt
53 | N#CCc1ccc(OC(=O)c2cccnc2)cc1 | nt | -1.39
54 | CC1=C(C(=O)OC2CCCC2)C(c2cccc(O)c2)C2=C(CC(C)(C)CC2=O)N1 (stereo unspecified) | -0.91 | -0.13
55 | CCCOC(=O)C1=C(C)NC2=C(C(=O)CCC2)C1c1ccc(OC)c(Br)c1 (stereo unspecified) | 0.09 | -2.32
56 | CCOc1ccc(N(CC(=O)OC)S(=O)(=O)c2c(C)noc2C)cc1 | 2 | nt
57 | CC1CCN(C(=O)Nc2ccc3c(c2)N(C)C(=O)c2ccccc2S3)CC1 | 0.84 | 1.68
58 | C#CCN1C(=O)C(O)(CC(=O)c2ccc(C(C)C)cc2)c2cc(Br)ccc21 (stereo unspecified) | 0 | 0.13
59 | CCC(C(=O)NC(C)CCc1ccccc1)n1ncn2c(cc3occc32)c1=O (stereo unspecified) | 0.96 | -0.58
60 | NCCc1nnc(SCc2ccccc2)o1 | 0.79 | -0.93
61 | O=C(Oc1ccc2c(c1)oc(=O)c1ccccc12)c1ccc(F)cc1 | 0.2 | 0.87
62 | COc1cc(CO)ccc1OCc1nnnn1-c1ccc(Br)cc1 | 1.32 | 0.44
63 | CCOC(=O)N1CCC(Nc2c(NC3CCCC(C)C3C)c(=O)c2=O)CC1 (stereo unspecified) | -0.42 | -1.7
64 | C=C(C)Cn1c(NCCO)nc2c1c(=O)[nH]c(=O)n2C | 0.24 | 0.14
65 | CC1(C)CC(=O)C(c2c[nH]c3ccccc23)C(=O)C1 | 0.86 | -0.14
66 | Fc1ccc(-n2ncc3c(N4CCCCC4)ncnc32)cc1 | 0.82 | nt
67 | COc1cc(Nc2c(-c3ccc(C(C)C)cc3)c(=O)c2=O)cc(OC)c1 | 2.01 | nt
68 | O=C(CCCn1c(=O)c2cccn2c2ccccc21)N1CCN(c2ccccn2)CC1 | 1.66 | nt
69 | Cc1ccc(-c2onc(C)c2C)cc1S(=O)(=O)Nc1cc(F)ccc1F | 2.55 | nt
70 | COC(=O)CC(=O)CSc1nc(C)c(C)cc1C#N | 0.58 | -1.71
71 | COc1cc(/C=C2\NC(=O)NC2=O)ccc1O | nt | -4.26
72 | O=C(NCc1cccn1Cc1ccccc1F)Nc1ccc(Br)cc1F | -0.51 | nt
73 | Cc1csc(NC(=O)CSc2ccc3nc(-c4ccccc4)cn3n2)n1 | 2.09 | nt
74 | CCCCC(CC)CNS(=O)(=O)c1cc(Br)cc2c1N(C(=O)C1CC1)CC2 (stereo unspecified) | 0.76 | 0.1
75 | CCOC(=O)c1ccc(NC(=O)CSc2nnc3sc4ccccc4n23)cc1 | nt | 0.15
76 | COc1ccc(N(C)C(=O)C2CCCN2S(=O)(=O)c2cccc3nsnc23)c(OC)c1 (stereo unspecified) | -0.95 | -0.31
77 | CCCSc1nnc(NC(=O)Cc2coc3cc(C)ccc23)s1 | 1 | 0.15
78 | CCOC(=O)Cc1ccc2nc(C)n(CO)c2c1 | -0.18 | -0.55
79 | CC(C)C(=O)N1c2ccccc2NC2=C(C(=O)CC(C)(C)C2)C1c1ccc(F)cc1 (stereo unspecified) | 1.29 | nt
80 | Cc1cc(N2C(=O)CCS2(=O)=O)cc(C)c1S(=O)(=O)N1CCN(c2ccccc2)CC1 | -1.1 | -0.09
81 | FC(F)(F)c1cccc(C2=Nn3c(nnc3-c3ccc4c(c3)OCO4)SC2)c1 | nt | -1.3
82 | CC(C)Oc1ccc(C2N3CC4(C)CN2CC(C)(C3)C4=O)cc1 (stereo unspecified) | -0.52 | 0.19
83 | COc1ccc(Cc2nc3c4cnn(C)c4ncn3n2)cc1OC | 1.19 | 0.7
84 | CCOC(=O)N1CCC(Nc2c(NC3CCCC3)c(=O)c2=O)CC1 | -0.27 | 0.35
85 | Cc1nc2ccc(S(=O)(=O)NC(CC(C)C)C(=O)N3CCc4ccccc4C3)cc2s1 (stereo unspecified) | 0.74 | -0.73
86 | O=C(CC1CCCCC1)Nc1nnc2n1CCS2 | 0.5 | nt
87 | O=C(Nc1ccc(S(=O)(=O)Nc2nccs2)cc1)c1sc2cc(Cl)ccc2c1Cl | 2.49 | -0.95
88 | COc1ccc(OC)c(NC(=O)c2cc3c(s2)-c2ccccc2SC3)c1 | -1.66 | 0.13
89 | COc1ccc(C)cc1Nc1nc2ccccc2c2nnc(C)n12 | 0.17 | 2.25
90 | CC(C)N(C(=O)Cn1c(C2CC(=O)N(c3ccc(Cl)cc3)C2)nc2ccccc21)c1ccccc1 (stereo unspecified) | 0.62 | -1.6

Remaining list, next part.
No. | compound | TAR Tat displ | CDC25B-CDK2 inh
91 | Cc1cc(=O)n(C(NC(=O)c2ccccc2)C(=O)c2ccccc2)cn1 (stereo unspecified) | nt | -1.82
92 | CCc1nnc(SCc2nc(-c3ccccc3)oc2C)c2cc3occc3n12 | -1.84 | nt
93 | OC(CNc1ccc(Cl)cc1)Cn1nnnc1-c1ccccc1 (stereo unspecified) | -0.27 | -0.48
94 | O=C(NCC1CCN(C2CCCC2)C1)Nc1ccc(F)c(Cl)c1 (stereo unspecified) | 1.5 | -1.75
95 | Cc1c(C)n(C(=O)CSc2nc(O)cc(=O)[nH]2)c2ccccc12 | -0.33 | -0.71
96 | CCc1nn2c(=O)cc(CSc3nc(-c4ccco4)nc4cc(=O)[nH]n34)nc2s1 | 1.62 | nt
97 | COc1ccc(C2=C(C)C(Nc3cc(C)c(Cl)cc3OC)=NS2(=O)=O)cc1 | 0.83 | -1.28
98 | CC1=CC(C)(C)NC(=S)N1 | nt | -1
99 | COc1ccc(N(C)C(=O)c2noc3c2COc2ccccc2-3)c(OC)c1 | 0.63 | -1.46
100 | O=C(Nc1ccc(Cl)cc1)c1nn(-c2ccc(F)cc2)ccc1=O | -0.23 | -0.04
101 | Cn1nc(-c2ccccc2)c(-c2ccccc2)c(C(=O)Nc2ccccn2)c1=O | 1.35 | 0.2
102 | CC(C)NCCC[N+](C)(C)C | nt | -1.8
103 | Cc1ccc(C)c(NC(=O)Nc2c(C)n(C)n(-c3ccccc3)c2=O)c1 | 1.27 | -1.62
104 | Cc1cccc(S(=O)(=O)Nc2cccc(-c3ccc(N4CCCC4)nn3)c2)c1 | 0.03 | nt
105 | CN(CC(=O)NCCC1=CCCCC1)S(=O)(=O)c1cccc2cccnc12 | -1.09 | -0.39
106 | Fc1ccc(-c2nn3c(Cn4cnc5ccccc54)nnc3s2)cc1 | 0.43 | -1.73
107 | O=S(=O)(c1cccc2nsnc12)N1CCCC1c1cccs1 (stereo unspecified) | 0.54 | -2.3
108 | CCN1CCN(c2ncnc3onc(-c4ccc(Cl)cc4)c23)CC1 | 0.56 | -1.91
